CHT allo act – allosterically activates the human high affinity choline transporter; CHT-expressing cells, membrane potential dye, choline EC20; active compounds read high; LV-AA mutant CHT in HEK293 cells; B-score at 10 µM; Q9GZV3; hit rate 0.49% among 310,000;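 active = initial fluorescence not abnormally high and integrated response B-score, plate-corrected, over 3 SD above library mean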
Target sequence (Q9GZV3 whole entry, looked up): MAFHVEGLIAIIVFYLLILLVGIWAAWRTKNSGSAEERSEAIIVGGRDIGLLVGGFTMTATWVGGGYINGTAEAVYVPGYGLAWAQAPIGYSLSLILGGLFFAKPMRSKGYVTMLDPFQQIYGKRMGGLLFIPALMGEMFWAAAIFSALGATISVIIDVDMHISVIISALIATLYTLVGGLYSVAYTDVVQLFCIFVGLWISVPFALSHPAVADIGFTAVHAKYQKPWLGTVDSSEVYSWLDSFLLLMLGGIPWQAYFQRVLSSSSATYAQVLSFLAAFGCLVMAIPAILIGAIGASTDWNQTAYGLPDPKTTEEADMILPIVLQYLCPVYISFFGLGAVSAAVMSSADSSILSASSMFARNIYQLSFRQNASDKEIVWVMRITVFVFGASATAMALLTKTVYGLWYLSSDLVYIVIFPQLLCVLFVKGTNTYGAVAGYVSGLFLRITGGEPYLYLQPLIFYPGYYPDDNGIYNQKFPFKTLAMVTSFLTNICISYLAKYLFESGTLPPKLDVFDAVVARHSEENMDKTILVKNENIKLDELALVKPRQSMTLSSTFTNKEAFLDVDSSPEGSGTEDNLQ
Calls only; i = inactive.

molecule	CHT allo act
CCCCCCC(=O)NC(Nc1ccc(S(N)(=O)=O)cc1)C(Cl)(Cl)Cl (stereo not drawn)	i
CC(/C=N/NC(=O)c1nn(C)c(C)c1Br)=C\c1ccccc1	i
O=C(CNc1cccc2ccccc12)N/N=C/c1ccc(C(=O)O)cc1	i
CCN(/C=N/c1sc2c(c1C#N)CC(C)(C)NC2(C)C)CC	i
N/C(CCS(=O)(=O)c1ccc(Cl)cc1)=N\OC(=O)c1ccc(Cl)cc1	i
COc1cccc(CN2CCCC(C(=O)c3ccc4c(c3)OCO4)C2)c1O (stereo not drawn)	i
CC(C)[C@@H]1CC[C@@H](C)c2c(-c3ccccc3)n[nH]c21	i
O=C(CCSc1nnc(-c2ccncc2)o1)Nc1ccccc1	i
CC(C)[C@H](NC(=O)N1CCn2c1nc1ccccc12)C(=O)N[C@@H](C(=O)O)c1ccccc1	i
Cc1ccc(S(=O)(=O)NNC(=O)CCC(=O)Nc2ccccc2)cc1	i
CCCCNC(C(=O)Nc1ccc(Cl)c([N+](=O)[O-])c1)c1ccccc1 (stereo not drawn)	i
Cc1c(CBr)[n+](=O)c2c(n1[O-])C(Br)CCC2Br (stereo not drawn)	i
O=C(CN1C(=O)CCSc2ccc(S(=O)(=O)N3CCCC3)cc21)Nc1ccccc1Cl	i
COc1cc(NC(=O)CN2c3cccc4cccc(c34)S2(=O)=O)cc(OC)c1OC	i
O=C(O)c1csc(-c2ccc(Cl)cc2)n1	i
Cc1cc(C(=O)NC(=S)Nc2cccc(NC(=O)C(C)C)c2)ccc1[N+](=O)[O-]	i
CC1Cc2ccccc2N1C(=O)CSc1nc(-c2ccccc2)cs1 (stereo not drawn)	i
Nc1ccn([C@H]2C[C@H](O)[C@@H](CO)O2)c(=O)n1	i
COc1ccc(N2CCN(C(CNC(=O)C(=O)NCC(OC)OC)c3ccco3)CC2)cc1 (stereo not drawn)	i
CCOC(=O)c1[nH]c2ccccc2c1NC(=O)CCN1CC(C)OC(C)C1 (stereo not drawn)	i
CCOC(=O)c1c(C)n(-c2ccc(C)cc2)c2c(C(C(C)=O)C(=O)O)c(Br)c(O)c(O)c12 (stereo not drawn)	i
COc1cccc(NC(=S)NNC(=O)c2c([N+](=O)[O-])c(C)nn2C)c1	i
CN(CC(=O)Nc1ccccc1Cl)C(=O)COc1cccc2c1OC(C)(C)C2	i
COCCNC(=O)Cn1nc(C)c2ccccc2c1=O	i
CCC(=O)Nc1cc(C(F)(F)F)ccc1N1CCCC1	i
Cc1ccc(S(=O)(=O)N2CCN(C(=O)N3CCOCC3)C2C(C)C)cc1 (stereo not drawn)	i
CCOc1cc(C(N)=O)cc(Br)c1OCC	i
O=C(CNCc1ccc(F)cc1)Nc1ccccc1-c1ccccc1	i
Nc1nnc(/C=C/c2cccc([N+](=O)[O-])c2)s1	i
COC(=O)c1cc(C(=O)NCCN2C(=O)S/C(=C\c3cccs3)C2=O)cc([N+](=O)[O-])c1	i

7 entries from above, sorted by heavy-atom count, lowest first:
molecule	CHT allo act
Nc1nnc(/C=C/c2cccc([N+](=O)[O-])c2)s1	i
CC(C)[C@@H]1CC[C@@H](C)c2c(-c3ccccc3)n[nH]c21	i
COCCNC(=O)Cn1nc(C)c2ccccc2c1=O	i
CC(/C=N/NC(=O)c1nn(C)c(C)c1Br)=C\c1ccccc1	i
O=C(CCSc1nnc(-c2ccncc2)o1)Nc1ccccc1	i
CCCCNC(C(=O)Nc1ccc(Cl)c([N+](=O)[O-])c1)c1ccccc1 (stereo not drawn)	i
COc1cc(NC(=O)CN2c3cccc4cccc(c34)S2(=O)=O)cc(OC)c1OC	i

Later entries:
molecule	CHT allo act
COc1cccc(-c2noc(-c3ccoc3C)n2)c1	i
Cc1cc(C)cc(N(CC(=O)NC2CC3CCC2C3)S(C)(=O)=O)c1 (stereo not drawn)	i
CC1CCCCC1NC1=NCCCS1 (stereo not drawn)	i
CCCCCC[n+]1c(-c2ccc(Cl)cc2Cl)csc1Nc1ccccc1	i
O=C1CCCC/C1=C/NCc1ccccc1	i
Cc1[nH]nc(SCC(=O)N(C)c2ccccc2)c1[N+](=O)[O-]	i
Cc1c(NC(=O)C2CC(c3ccc(F)cc3)=NO2)c(=O)n(-c2ccccc2)n1C (stereo not drawn)	i
CCOC(=O)N1CCN(CCC(=O)Nc2ccc(F)c(F)c2)CC1	i
COc1ccc(Cl)cc1-c1nc(-c2ccc(Br)o2)no1	i
Cc1ccccc1N1C(=O)c2ccccc2C1Nc1cccnc1 (stereo not drawn)	i
Cc1ccccc1N1C(=S)NC2c3ccccc3OC1(C)C2C(=O)N(C)C (stereo not drawn)	i
COc1ccc(C(=O)Nc2ccc(SC(F)F)cc2)cc1	i
Cc1sc(C(=O)NCc2cccnc2)c2nc(C)n(CC(=O)NCc3cccnc3)c(=O)c12	i
COc1cc(NC(=O)c2ccc(Cl)cc2)c(OC)cc1Cl	i
O=C(NCc1ccccc1Cl)c1ccc(NC2=NC3CS(=O)(=O)CC3S2)cc1 (stereo not drawn)	i
COc1ccc2c(c1)CCC/C2=N\NC(=O)c1ccoc1C	i
Cn1nnnc1SCC(=O)N1CCN(C(=O)c2ccco2)CC1	i
C(=C\c1nnc2c3ccccc3ncn12)/c1ccccc1	i
Cn1c2c(c(=O)n(C)c1=O)C(c1ccc(Br)cc1)C(C#N)=C(N)N2 (stereo not drawn)	i
O=C(Nc1cccc(C(F)(F)F)c1)c1cnc2n(c1=O)CCS2	i
Nc1c(C(=O)Nc2ccc3c(c2)OCCO3)nnn1Cc1ccccc1	i
COc1cccc(NC(=O)CSc2nnc(Cc3ccc(OC)c(OC)c3)o2)c1	i
CCN1CCCn2c1nc1c2c(=O)n(C)c(=O)n1C	i
OCC1CCCN(C(=S)NCCc2ccccc2)C1 (stereo not drawn)	i
CCOC(=O)C(Cc1ccccc1)C(=O)Nc1ccc(N(CC)CC)cc1 (stereo not drawn)	i
O=C(CSc1ccc(-c2cccnc2)nn1)Nc1ccccc1	i
O=C(CSc1nnc(NC(=O)c2ccc(F)cc2)s1)NCc1ccco1	i
O=C(/C=C/c1ccc(-c2ccccc2[N+](=O)[O-])o1)c1ccco1	i
CC1CCCC(C)N1CCCNC(=O)c1cc2c(=O)n(C)c3ccccc3c2n1C (stereo not drawn)	i
Cc1nc2ccc(NC(=O)NC(=O)c3c(Cl)cccc3Cl)cc2o1	i

molecule	CHT allo act
CCCCC(=O)Nc1ccc(N2CCCC2)cc1	i
O=C(Nc1ccc(F)c(Cl)c1)C1CCN(S(=O)(=O)c2cccnc2)CC1	i
CCOc1ccc(OCC)c(NC(=O)C2CCCN(S(=O)(=O)c3c(C)n[nH]c3C)C2)c1 (stereo not drawn)	i
CCC(=O)Nc1ccc(C(=O)CSc2nnc(-c3ccc(NS(C)(=O)=O)cc3)n2C)cc1OC	i
Cc1cnc(C(=O)OC(C)C(=O)Nc2ccc(Cl)cn2)cn1 (stereo not drawn)	i
Cc1cccc(CC(=O)N2CCC(N3CCC(C(=O)N4CCOCC4)CC3)CC2)c1	i
CCOC(=O)Nc1nc(-c2ccc(Cl)cc2Cl)cs1	i
COc1ccc(/C=N/NC(=O)c2cccc([N+](=O)[O-])c2)cc1OC(=O)c1ccccc1	i
COc1ccccc1N1CCN(C(=O)CCN2C(=O)c3cccc4cccc(c34)C2=O)CC1	i
Nc1nonc1-n1nnc(C(=O)N/N=C/c2ccc(F)cc2)c1-c1ccc2c(c1)OCO2	i
CN(C)Cc1c(C(=O)N/N=C/C=C/c2ccccc2)nnn1-c1nonc1N	i
CCCn1c(SCC(=O)Nc2cc(C)on2)nc2c1c(=O)n(C)c(=O)n2C	i
CCOc1ccc(NC(=O)CN(C)C(=O)c2ccc(N3CCCCCC3)c([N+](=O)[O-])c2)cc1OCC	i
CCOC(=O)c1[nH]c(C)c(C(=O)NC2CCCC2)c1C	i
CCN(CC)c1ccc(S(=O)(=O)N2CCCCC2)cc1NC(=O)C1CCC1	i
COCCOc1ccc(C(F)(F)F)cc1NC(=O)c1ccc(C(F)(F)F)cc1	i
Cc1ccc(-c2onc3ccc(C4OCCO4)cc23)cc1	i
CCCCOc1ccc(C(=O)NCc2ccco2)cc1	i
CCOC(=O)C1=C(C(C)=O)C(c2cccnc2)C(C#N)=C(N)O1 (stereo not drawn)	i
CN1C(=O)S/C(=C\c2ccc(-n3cncn3)cc2)C1=O	i
CCOc1cccc(-c2c(C(=O)N/N=C(\C)c3ccccn3)nnn2-c2nonc2N)c1	i
CCCCOc1ccc(CSC(CC(=O)O)C(=O)O)cc1 (stereo not drawn)	i
O=C(CN(C(=O)CNC(=O)c1ccco1)c1ccc2c(c1)OCCO2)NC1CCCCC1	i
CS(=O)(=O)N1CCCC(C(=O)NCCN2CCC(Cc3ccccc3)CC2)C1 (stereo not drawn)	i
C/C(=N\NC(=O)c1cccc(S(=O)(=O)N2CCCC2)c1)c1ccco1	i
CC1CC1C(=O)OCC(=O)Nc1cccc([N+](=O)[O-])c1 (stereo not drawn)	i
O=C1C=C(NC2=CC3OC(c4ccccc4)OCC3OC2=O)CCC1 (stereo not drawn)	i
CCOc1ccc(-c2nc(S(=O)(=O)c3ccccc3)c(NC)o2)cc1	i
CC1=NN(c2ccccc2)C(=O)C1N=Nc1ccccc1 (stereo not drawn)	i
CN(c1ccccc1)S(=O)(=O)c1ccc(Cl)c(C(=O)Nc2nc3ccccc3[nH]2)c1	i

SMILES	CHT allo act
COc1ccccc1/C=N/NC1=NCCCCC1	i
CC(=O)c1ccc(NC(=O)c2ccc(C)c(Br)c2)cc1	i
CC1=CCC(C(=O)O)(C(=O)N/N=C/c2cccnc2)C(c2ccccc2)C1 (stereo not drawn)	i
COc1ccc(S(=O)(=O)N2CCC(C(=O)NCc3ccncc3)CC2)cc1C	i
COC(=O)c1ccc(CN2CCC(n3nccc3NC(=O)C3CC3)CC2)cc1	i
O=C(c1ccc(Cl)c(S(=O)(=O)N2CCOCC2)c1)N1CCOCC1	i
Cn1c(CCNC(=O)c2ccco2)nc2ccccc21	i
COc1ccc(C(=O)CSc2nnc(Cc3ccccc3)o2)cc1	i
CCOC(=O)c1c(S(=O)(=O)N(C)C2CCCCC2)c(C)n(C)c1C	i
CCO[C@H]1OC(C(=O)N2CCN(Cc3ccc4c(c3)OCO4)CC2)=C[C@@H](c2ccc3c(c2)OCO3)[C@@H]1CCCO	i
COc1ccc(-n2nc(C(=O)NCC(=O)N3CCOCC3)c3ccccc3c2=O)c(OC)c1	i
CCCc1cc2c(cc1NC(=O)c1ccc(C(C)(C)C)cc1)OCO2	i
NC(=O)Cn1nc([N+](=O)[O-])nc1Oc1ccccc1F	i
CC(=O)Nc1ccc(NC(=O)Cn2nc(C(=O)Nc3ccc(C)cc3)ccc2=O)cc1	i
CCCC(=O)N(c1ccc2oc(C)c(C(C)=O)c2c1)S(=O)(=O)c1ccc(C(=O)O)cc1	i
COc1ccc(COC(=O)c2cccc(S(=O)(=O)N3CCN(C(C)=O)CC3)c2)cc1F	i
COc1cc2c(cc1OC)CN(C(=O)/C=C/c1cccs1)CC2	i
COc1ccc(N/C=C2\CCOC2=O)cc1	i
CCCOc1ccc(/C=N/O)cc1	i
O=C1CC2(CCCCC2)Oc2ccccc21	i
Cc1nc(NC(=O)CN(C)S(=O)(=O)c2ccc(Cl)cc2)sc1C	i
Cc1ccc(C)c(OCC(=O)NC2CCCCCC2)c1	i
Cc1cccc(NC(=O)CS(=O)(=O)c2cn(CC(=O)N3CCOCC3)c3ccccc23)c1	i
Cc1ccc(NC(=O)c2ccc3c(c2)OCO3)cc1Cl	i
COc1cc2c(cc1NC(=O)CSc1nnc(Cc3cccs3)n1C)oc1ccccc12	i
Cc1cccc[n+]1CC(=O)c1ccc(Cl)cc1	i
Cc1ccc(S(=O)(=O)N2CCCCC2)cc1NC(=O)CN1C(=O)CN(C)C1=O	i
Cc1ccc(C2NC(c3ccc(C)cc3)C(C)C(=NO)C2C)cc1 (stereo not drawn)	i
O=C(CSc1ccccn1)Nc1nncs1	i
Cc1c(OC(C)C(=O)O)ccc2c(-c3ccccc3)cc(=O)oc12 (stereo not drawn)	i

Some of the entries above in a different format:
> O=C1C=C(NC2=CC3OC(c4ccccc4)OCC3OC2=O)CCC1 (stereo not drawn)
  CHT allo act: i
> CC1CC1C(=O)OCC(=O)Nc1cccc([N+](=O)[O-])c1 (stereo not drawn)
  CHT allo act: i

Some of the entries so far, as labelled records:
COc1ccc(/C=N/NC(=O)c2cccc([N+](=O)[O-])c2)cc1OC(=O)c1ccccc1
  CHT allo act: i
COc1ccccc1N1CCN(C(=O)CCN2C(=O)c3cccc4cccc(c34)C2=O)CC1
  CHT allo act: i

New compounds follow:
SMILES	CHT allo act
CCOC(=O)C1=C(C)N(Cc2ccccc2)C(=O)NC1c1ccc(OC)cc1 (stereo not drawn)	i
COc1ccc(CN2C(=O)c3cccnc3C2O)cc1 (stereo not drawn)	i
Cc1ccc(N(CC(=O)NC2CCCC2)C(=O)c2nsc(Cl)c2Cl)cc1	i
Cc1ccccc1NC(=O)C1CCN(c2cnccn2)CC1	i
Cc1cc(=O)oc(C)c1C(=O)Nc1ccc(N(C)C)cc1	i
O=C(NNC(=O)c1ccccc1Br)c1cccs1	i
NC(=O)COC(=O)/C=C/c1ccc(S(=O)(=O)N2CCCCCC2)cc1	i
NC(=O)c1ccc(NC(=O)CS(=O)(=O)c2cn(CC(=O)N3CCCCC3)c3ccccc23)cc1	i
FC(F)(F)c1cccc(Cc2noc(CN3CCCCC3c3ccccn3)n2)c1 (stereo not drawn)	i
CC(=O)N/C(=C/c1ccc(OC(F)F)cc1)C(=O)O	i
Cc1cccc(NC(=O)CSc2nnc3ccc(-c4ccccn4)nn23)c1	i
O=C1c2ccccc2C(=O)N1CCCc1nc(-c2ccccc2)no1	i
Cc1ccc(-n2cc(C(=O)c3ccc(N4CCN(C)CC4)cc3)nn2)cc1Cl	i

4 compounds picked at random from the list so far, as already listed:
SMILES	CHT allo act
CCOC(=O)C1=C(C)N(Cc2ccccc2)C(=O)NC1c1ccc(OC)cc1 (stereo not drawn)	i
FC(F)(F)c1cccc(Cc2noc(CN3CCCCC3c3ccccn3)n2)c1 (stereo not drawn)	i
NC(=O)COC(=O)/C=C/c1ccc(S(=O)(=O)N2CCCCCC2)cc1	i
O=C1c2ccccc2C(=O)N1CCCc1nc(-c2ccccc2)no1	i

A portion of the library, and most or all hits are left out here.
